Bioassay records: PubChem, several laboratories
Arbovirus anti: arbovirus infection inhibition; arbovirus infection cell-based antiviral screen; inhibition, % at 10 µM; 0.37% of 200,000 active; AID 1251;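 active = inhibition from about 30%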;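 note: bluetongue infection of BSR cells; cell survival read as ATP light after 72 h; 0% = infected wells without compound and 100% = uninfected wells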
Mtb bLac sens: beta-lactam sensitization of Mtb H37Rv; M. tuberculosis H37Rv growth with meropenem, percent inhibition; hits of this screen are not shown here; 0.27% of 330,000 active; AID 434955; inhibition, % at 25 µM;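 active = about 74% or more and at least 40 points above the plate without the antibiotic, then above 30% in a dose series; inconclusive = first-round hits that could not be retested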;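 note: growth measured after seven days incubation then overnight dye step; 0% = bacteria only wells and 100% = bacteria with antibiotic; twin plates without the antibiotic show which effects depend on it; some results filed as inactive read as strong as hits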
Mtb growth: M. tuberculosis H37Rv growth inhibitors, H37Rv strain (AID 1626); 0.95% of 220,000 active; one-dose inhibition, % at 10 µM; IC50 in µM for titrated hits; M. tuberculosis H37Rv growth inhibition; higher % means a stronger effect;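 active = confirmed in a dose series; inconclusive = inhibition above 80% but not taken into the dose series; inactive = below 80% or under 30% at every dose of the series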;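 note: bacteria incubated seven days before Alamar blue readout; 0% = bacteria only wells and 100% = bacteria with antibiotic wells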
RecA intein inh: Mtb RecA intein splicing inhibition; cell-free RecA intein splicing, fluorescence; inhibition, %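 (about 9 µM by stock and volumes)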; 0.75% of 290,000 active; in the data active = inhibition above about 30%; inconclusive = no clear call, values can overlap the other calls;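 note: 0% = vehicle wells and 100% = reference inhibitor control wells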
Target sequence (P9WHJ3 whole entry, looked up): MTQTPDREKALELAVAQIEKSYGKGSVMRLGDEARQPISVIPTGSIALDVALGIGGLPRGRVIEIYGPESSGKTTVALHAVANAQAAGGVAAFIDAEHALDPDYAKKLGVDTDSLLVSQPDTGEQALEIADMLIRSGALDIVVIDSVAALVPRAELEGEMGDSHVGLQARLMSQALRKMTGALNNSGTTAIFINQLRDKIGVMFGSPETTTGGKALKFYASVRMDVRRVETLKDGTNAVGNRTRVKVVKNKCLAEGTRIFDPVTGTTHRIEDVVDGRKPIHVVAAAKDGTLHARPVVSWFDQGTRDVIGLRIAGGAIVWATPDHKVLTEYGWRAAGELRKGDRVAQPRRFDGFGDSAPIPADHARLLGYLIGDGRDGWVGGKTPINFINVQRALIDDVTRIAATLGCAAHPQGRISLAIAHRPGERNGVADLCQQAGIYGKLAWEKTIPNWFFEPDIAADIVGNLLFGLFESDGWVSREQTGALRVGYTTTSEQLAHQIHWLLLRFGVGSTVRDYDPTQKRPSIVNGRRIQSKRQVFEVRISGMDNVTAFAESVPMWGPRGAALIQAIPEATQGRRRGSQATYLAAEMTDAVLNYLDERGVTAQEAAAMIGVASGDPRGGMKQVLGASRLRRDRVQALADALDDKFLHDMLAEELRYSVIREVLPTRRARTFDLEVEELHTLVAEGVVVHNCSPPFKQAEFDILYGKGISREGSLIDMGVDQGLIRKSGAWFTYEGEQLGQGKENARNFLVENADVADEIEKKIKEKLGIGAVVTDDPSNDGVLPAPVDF
YopH PTP inh: YopH (Yersinia) phosphatase inhibition; fluorescence Ex485/Em525; inhibition, %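 (about 10 µM by stock and volumes)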; 0.16% of 140,000 active; AID 898;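 active = inhibition of 50% or more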;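 note: controls were vehicle for no effect and minimum signal wells for full effect; inactives centre near -20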
Starred values were filed as active, the others as inactive; ? = inconclusive; . = not tested or not shown.

cpd | Structure | Arbovirus anti | Mtb bLac sens | Mtb growth
1 | CCOc1ccccc1N1CCN(CC(=O)Nc2nnc(CC)s2)CC1 | 0.4 | -3.6 | -3.4%
2 | CCCc1cc(=O)[nH]c2nnc(SCC(=O)N3CC(C)OC(C)C3)n12 (centres undefined) | . | 2.4 | .
3 | CCOC(=O)c1[nH]c2ccc(F)cc2c1N=C(C)N(CC)CC | -15.0 | 1.2 | -3.7%
4 | O=C(NCc1ccco1)c1cc([N+](=O)[O-])ccc1Cl | -6.7 | -11.5 | -6.8%
5 | O=C(NCC(c1cccs1)N1CCOCC1)c1cc(S(=O)(=O)N2CCOCC2)ccc1F (centres undefined) | . | -4.5 | .
6 | O=C(NCc1ccc2c(c1)OCO2)C1CCCN(S(=O)(=O)c2cccc3nonc23)C1 (centres undefined) | -18.7 | -5.1 | -5.5%
7 | CCC1(CC)NC(=O)N(CC(=O)NC(=O)NCc2ccccc2)C1=O | . | -1.8 | .
8 | CN(C)C(=S)Nc1nc2ccccc2s1 | -2.6 | . | ?
9 | O=C(CSc1nc2ccc(Cl)cc2[nH]1)c1c[nH]c2ccccc12 | -3.2 | -1.0 | 9.9%
10 | O=C(COc1ccc(Br)cc1Cl)NC1CCCCC1 | -4.0 | 2.0 | 3.6%
11 | N/C(Cn1cncn1)=N\OC(=O)c1ccc(Cl)cc1 | 5.5 | -4.8 | 2.4%
12 | CC(=O)c1cnc2nc(SCc3ccccc3)nn2c1C | . | -2.9 | .

cpd | RecA intein inh | YopH PTP inh
1 | -0.7 | -104.8
2 | -1.2 | .
3 | 6.0 | -25.1
4 | 7.6 | .
5 | -1.1 | .
6 | -0.4 | -14.7
7 | 1.2 | .
8 | -1.4 | .
9 | 2.1 | .
10 | 1.9 | -24.4
11 | 7.2 | .
12 | 3.4 | .

Continuation.
cpd | Structure | Arbovirus anti | Mtb bLac sens | Mtb growth
13 | Cc1cccc(NC(=S)NNC(=O)c2cc3c(s2)CCC(C)C3)c1C (centres undefined) | -17.7 | 9.8 | 1.9%
14 | Cc1ccc(OCC(=O)NC2CC(C)(C)NC(C)(C)C2)cc1C | 15.6 | -1.4 | 2.4%
15 | CCCc1cc(=O)oc2cc(OC(C)C(=O)NCC3CCC(C(=O)O)CC3)ccc12 (centres undefined) | . | -5.4 | .
16 | O=C(CN1CCN(c2ccccc2F)CC1)c1ccc2c(c1)OCO2 | -0.2 | -6.4 | 11.8%
17 | COc1cccc(OC)c1C(=O)Nc1c(C)n(C)n(-c2ccccc2)c1=O | -1.5 | 1.3 | 0.2%
18 | Brc1ccc(CN2CCN(Cc3c[nH]c4ccccc34)CC2)cc1 | . | 4.4 | .
19 | O=C(c1ccccn1)N1CCCC(N2CCN(Cc3ccc4c(c3)OCO4)CC2)C1 (centres undefined) | . | -12.6 | .
20 | CCCC1=C(C(=O)OCC)C(c2ccccc2OC)NC(=O)N1 (centres undefined) | 6.0 | -0.7 | 7.0%
21 | Cc1ccc(NC(=O)c2cccs2)cc1NC(=O)c1ccco1 | -3.4 | -3.6 | -8.6%
22 | COC(=O)[C@H](Cc1ccccc1)NC(=O)NC(C)CCc1ccccc1 (some centres undefined) | . | -1.3 | .
23 | CCN1CCN(C(=S)c2ccc(SC)cc2)CC1 | 9.5 | -2.8 | -7.7%
24 | O=C(c1ccc(F)cc1)C(Cc1ccccc1)N1CCCCC1 (centres undefined) | 2.4 | -1.4 | -0.5%

cpd | RecA intein inh | YopH PTP inh
13 | 7.5 | -23.8
14 | -3.0 | .
15 | 2.2 | .
16 | 3.3 | -18.3
17 | -1.6 | 6.0
18 | 3.3 | .
19 | -0.7 | .
20 | -0.8 | -37.2
21 | 0.7 | -31.7
22 | 2.4 | .
23 | 1.6 | 4.6
24 | 3.0 | .

Going on with the list.
cpd | Structure | Arbovirus anti | Mtb bLac sens | Mtb growth
25 | Cc1ccc(OCCn2cnc3c2c(=O)n(C)c(=O)n3C)cc1 | . | 1.3 | .
26 | CC(C)CCn1c(SCCN2CCOCC2)nc2c1c(=O)[nH]c(=O)n2C | 3.7 | -1.7 | -2.9%
27 | COC(=O)CN1C(=O)C(C)(C)Oc2ccc(C(=O)NC3CCCC3)cc21 | . | -4.5 | .
28 | CC(C)N(C(=O)CSc1nc2ccccc2n1-c1ccccc1)C(C)C | -24.7 | 0.9 | 0.6%
29 | O=C(Nc1nnc(C2CC2)s1)c1ccc(Cl)c(S(=O)(=O)N2CCc3ccccc3C2)c1 | 19.4 | 2.5 | 0.6%
30 | CCOP(=O)(O)c1ccccc1OCCOc1ccccc1P(=O)(O)OCC | 10.0 | 6.0 | -6.4%
31 | O=C(/C=C/c1ccco1)N(Cc1cccc(Br)c1)C1CCS(=O)(=O)C1 (centres undefined) | . | -5.6 | -13.6%
32 | O=C(Nc1ccccc1C(=O)O)c1cc(S(=O)(=O)Nc2cccc(F)c2)ccc1Cl | . | 1.9 | .
33 | Cc1ccc(S(=O)(=O)c2nc(NC3CCS(=O)(=O)C3)sc2Cl)cc1 (centres undefined) | -5.3 | 3.0 | -3.7%
34 | CCCCN1C(=O)C(NC(C)=O)c2ccccc21 (centres undefined) | 4.0 | -0.5 | -8.1%
35 | N#CCCN(C(=O)COC(=O)CNC(=O)c1cccs1)c1ccc(F)cc1 | . | -11.9 | .
36 | COc1ccc(C)cc1-n1nnnc1SCC(=O)Nc1cccnc1Cl | 4.3 | -2.8 | 6.7%

cpd | RecA intein inh | YopH PTP inh
25 | -2.9 | .
26 | -0.5 | -42.3
27 | -0.1 | .
28 | 14.5 | 15.4
29 | 0.9 | -38.5
30 | -5.6 | -26.5
31 | 4.9 | .
32 | -2.5 | .
33 | 2.4 | -0.4
34 | 1.4 | -0.9
35 | 4.6 | .
36 | 1.3 | -0.1

Later entries:
cpd | Structure | Arbovirus anti | Mtb bLac sens | Mtb growth
37 | COc1ccc(C(=O)NC(=S)NCc2cccnc2)cc1Cl | . | 1.1 | .
38 | O=C(O)CC(c1ccc(OC2CCCC2)cc1)N1C(=O)c2ccccc2C1=O (centres undefined) | . | 8.2 | .
39 | COc1ncnc(OC)c1S(=O)(=O)NCc1ccccc1 | . | -0.9 | .
40 | O=C(CCS(=O)(=O)c1ccc(Cl)cc1)N1CCCc2ccccc21 | . | -6.2 | .
41 | CCC1(C)Cc2c(sc3nn[nH]c(=O)c23)CO1 (centres undefined) | -2.5 | -4.5 | 3.2%
42 | Cc1ccc(-n2c(O)c(/C=N/Nc3ccc(S(=O)(=O)N4CCOCC4)cc3[N+](=O)[O-])c3ccccc3c2=O)c(C)c1 | 3.9 | 3.2 | 7.9%
43 | O=C(NCCc1c[nH]c2ccccc12)C1CCN(S(=O)(=O)c2ccccc2)CC1 | . | -2.0 | .
44 | CCOc1ccc2oc(C(=O)NCc3nc4ccccc4[nH]3)c(C)c2c1 | . | 2.2 | .
45 | O=[N+]([O-])c1cc(S(=O)(=O)O)cc([N+](=O)[O-])c1NN(c1ccccc1)c1ccccc1 | . | -1.2 | .
46 | CCN1CCN(C(=O)/C(=C/c2ccco2)NC(=O)c2ccccc2)CC1 | . | -0.9 | .
47 | Cc1ccsc1C(=O)NCc1ccc(Cl)cc1 | . | -5.3 | .
48 | COc1cc(OC)c(N2CC34C=CC(O3)C(C(=O)O)C4C2=O)cc1Cl (centres undefined) | -1.3 | 55.4 | -2.2%
49 | CCCCc1c(C)c(C#N)c2nc3ccccc3n2c1Nc1c(C)n(C)n(-c2ccccc2)c1=O | -5.1 | 1.2 | 4.8%
50 | COc1ccccc1/C=C/C=N/NC(=O)CN1CCN(S(=O)(=O)c2ccc(C)cc2)CC1 | -13.6 | 0.5 | -6.6%
51 | CC1CCN(CCCNC(=O)C2CC(=O)N(C3CCCCCC3)C2)CC1 (centres undefined) | -1.1 | -6.7 | -12.7%

cpd | RecA intein inh | YopH PTP inh
37 | 2.9 | .
38 | -1.4 | .
39 | -1.0 | .
40 | 2.3 | .
41 | -0.4 | -27.1
42 | 16.8 | 26.9
43 | -0.6 | .
44 | 1.2 | .
45 | 4.4 | .
46 | -0.5 | .
47 | -0.5 | .
48 | 0.3 | -5.0
49 | -8.8 | -5.7
50 | 1.1 | -4.9
51 | -1.2 | -44.9

Some values from the list.
Mtb bLac sens with CCOc1ccc2oc(C(=O)NCc3nc4ccccc4[nH]3)c(C)c2c1 = 2.2
RecA intein inh with O=[N+]([O-])c1cc(S(=O)(=O)O)cc([N+](=O)[O-])c1NN(c1ccccc1)c1ccccc1 = 4.4

Exported with tabs: 13 of the compounds above.
item	structure	Arbovirus anti	Mtb bLac sens	Mtb growth	RecA intein inh	YopH PTP inh
18	Brc1ccc(CN2CCN(Cc3c[nH]c4ccccc34)CC2)cc1	.	4.4	.	3.3	.
19	O=C(c1ccccn1)N1CCCC(N2CCN(Cc3ccc4c(c3)OCO4)CC2)C1 (centres undefined)	.	-12.6	.	-0.7	.
20	CCCC1=C(C(=O)OCC)C(c2ccccc2OC)NC(=O)N1 (centres undefined)	6.0	-0.7	7.0%	-0.8	-37.2
21	Cc1ccc(NC(=O)c2cccs2)cc1NC(=O)c1ccco1	-3.4	-3.6	-8.6%	0.7	-31.7
22	COC(=O)[C@H](Cc1ccccc1)NC(=O)NC(C)CCc1ccccc1 (some centres undefined)	.	-1.3	.	2.4	.
23	CCN1CCN(C(=S)c2ccc(SC)cc2)CC1	9.5	-2.8	-7.7%	1.6	4.6
24	O=C(c1ccc(F)cc1)C(Cc1ccccc1)N1CCCCC1 (centres undefined)	2.4	-1.4	-0.5%	3.0	.
25	Cc1ccc(OCCn2cnc3c2c(=O)n(C)c(=O)n3C)cc1	.	1.3	.	-2.9	.
26	CC(C)CCn1c(SCCN2CCOCC2)nc2c1c(=O)[nH]c(=O)n2C	3.7	-1.7	-2.9%	-0.5	-42.3
27	COC(=O)CN1C(=O)C(C)(C)Oc2ccc(C(=O)NC3CCCC3)cc21	.	-4.5	.	-0.1	.
28	CC(C)N(C(=O)CSc1nc2ccccc2n1-c1ccccc1)C(C)C	-24.7	0.9	0.6%	14.5	15.4
29	O=C(Nc1nnc(C2CC2)s1)c1ccc(Cl)c(S(=O)(=O)N2CCc3ccccc3C2)c1	19.4	2.5	0.6%	0.9	-38.5
30	CCOP(=O)(O)c1ccccc1OCCOc1ccccc1P(=O)(O)OCC	10.0	6.0	-6.4%	-5.6	-26.5

An excerpt, so the mix of outcomes need not match the whole.
